UUG fidelity: modulators of yeast start codon fidelity, primary screen, whole organism, S. cerevisiae, single point, plate reader; S. cerevisiae UUG-firefly luciferase reporter, luminescence/redox ratio; activity score, % at 18.7 µM; actives 0.13% (n = 350,000); AID 602363, 2012;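 active = replicate mean at a twofold rise or more, about +100% in these data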;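 also: firefly luciferase made from a UUG start codon reports start codon fidelity; reporter light over untreated wells divided by growth signal over untreated wells; some hits fall short of that in this replicate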
Rce1 inhib: yeast Rce1p protease inhibitors, primary screen, biochemical, fluorescence, cell-free homogeneous. calls only. yeast membranes, quenched prenylated peptide cleavage fluorescence. actives 0.27% (n = 290,000). CAAX prenyl protease 2 (Saccharomyces cerevisiae (strain ATCC 204508 / S288c)), Q03530;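 active = fall in fluorescence gain of 50% or more versus controls, with final raw signal at or below 3038400; inconclusive = same 50% fall but final raw signal above 3038400; inactive = fall in fluorescence gain under 50%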;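 also: plate controls were neutral control wells for no effect and wells lacking membranes for full effect; tested at 10 µM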
CSC inhib: cancer stem cell viability inhibitors, primary screen, luminescence | cancer stem cell-like cells viability | AID 2717, 2010 | inhibition, % at 7.5 µM | actives 1.1% (n = 300,000);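 active = mean at 75% or more and at least half the replicates too; inconclusive = mean and replicates disagree; tested in HMLE shEcad cells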;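 also: 0% = median of negative and 100% = median of positive control wells; the first replicate is given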
eIF4H FP inh: human eIF4H binding inhibitors, primary screen, translation initiation inhibitor project, biochemical, uHTS, fluorescence polarization; Eukaryotic translation initiation factor 4H (Homo sapiens), Q15056; eIF4H fluorescence polarization binding assay; inhibition, % at 35 µM; actives 0.94% (n = 290,000);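 active = 50% or more with normal probe brightness, or confirmed in later tests; inconclusive = above 50% with abnormal brightness, or retests that disagree; inactive = below 50% or failed in later tests; about a fifth of its hits are not listed in these tables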;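 also: calls also rest on retests at 20 µM and on dose response follow-up; 0% = protein and probe with vehicle and 100% = probe without protein; strong numbers were not always called active; many hits fall short of the cut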
Env fusion inh: inhibitors of HIV-1 Env-driven cell-cell fusion, primary screen, HeLa-JRFL effector, CEM21 target cells, luciferase. inhibition, % at 12.3 µM. AID 651610, 2012. actives 1.1% (n = 360,000);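 active = mean replicate inhibition score of at least 50 and every replicate individually at or above 50; inconclusive = only one of the two criteria met; inactive = mean below 50 and not all replicates reaching 50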;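 also: 0% = plate neutral controls and 100% = maraviroc near 300 nM; one replicate is shown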
PABP FP inh: PABP poly(A) RNA binding inhibitors, primary screen, biochemical, fluorescence polarization, uHTS. Polyadenylate-binding protein 1 (Homo sapiens), P11940. inhibition, % at 35 µM. actives 1% (n = 290,000);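 active = 50% or more with normal probe brightness, or confirmed in later tests; inconclusive = above 50% with abnormal brightness, or retests that disagree; inactive = below 50% or failed in later tests; about a fifth of its hits are not listed in these tables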;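 also: calls also rest on retests at 20 µM and on dose response follow-up; controls were probe without protein and protein plus probe with vehicle; some compounds called inactive have numbers as strong as hits; many hits fall short of the cut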
Target sequence (P11940 whole entry, looked up): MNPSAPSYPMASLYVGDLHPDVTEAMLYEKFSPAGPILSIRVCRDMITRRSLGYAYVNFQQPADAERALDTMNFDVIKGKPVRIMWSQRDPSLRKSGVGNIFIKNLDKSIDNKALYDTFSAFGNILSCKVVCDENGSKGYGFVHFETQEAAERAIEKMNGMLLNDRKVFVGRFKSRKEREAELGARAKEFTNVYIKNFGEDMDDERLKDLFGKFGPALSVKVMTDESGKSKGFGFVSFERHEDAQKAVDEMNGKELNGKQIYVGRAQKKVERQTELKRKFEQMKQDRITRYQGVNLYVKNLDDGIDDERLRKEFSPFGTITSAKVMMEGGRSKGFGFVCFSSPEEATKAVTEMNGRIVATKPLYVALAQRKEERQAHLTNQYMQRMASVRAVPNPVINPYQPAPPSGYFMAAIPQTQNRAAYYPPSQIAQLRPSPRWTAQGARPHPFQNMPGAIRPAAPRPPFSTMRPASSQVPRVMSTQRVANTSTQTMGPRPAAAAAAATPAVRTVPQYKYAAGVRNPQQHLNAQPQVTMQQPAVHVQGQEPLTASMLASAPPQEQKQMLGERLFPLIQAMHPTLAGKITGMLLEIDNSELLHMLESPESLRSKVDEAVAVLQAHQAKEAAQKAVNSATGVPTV
MT1-MMP act inh: blockers of MT1-MMP proenzyme processing, primary screen, HT1080 RFP-PRO-GFP cells, GFP/RFP fluorescence; Matrix metalloproteinase-14 (Homo sapiens), P50281; GFP/RFP ratio fluorescence, overnight; percent of plate control window, DMSO zero; GFP/RFP ratio change, % at 20 µM; actives 0.061% (n = 360,000);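 active = GFP/RFP ratio change of at least 30% with cell ATP level not reduced by more than half and red fluorescence within 50% of control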; also: strong numbers were not always called active
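Test system: HT1080 RFP-PRO-GFP cells; Benchmarks: DMSO and RFP-L50D-GFP cell wells; Timing: cells overnight before dosing, compound overnight, 37 °C, 5% CO2; Compound: one 20 µM compound dose with 1% DMSO; Read-out: GFP/RFP fluorescence ratio.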
eIF4H FP inh retest: also measured in eIF4H FP inh; calls as there; inhibition, %; compound at 20 µM; confirmation average;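 mean of two retest wells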
PABP FP inh retest: second read-out of PABP FP inh, no call of its own (marks repeat the call); inhibition, %; compound at 20 µM; confirmation repeats;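 mean of two retest wells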
MT1-MMP act inh RFP: also measured in MT1-MMP act inh; calls as there; RFP signal change, %; measured here: RFP expression control read;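 0 = vehicle wells; hits needed this value within 50% of zero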
An asterisk follows results filed as active; i = inactive; u = inconclusive; x = not tested or not shown. Not all compounds are listed (hit frequency here may not be typical).

SMILES	UUG fidelity	Rce1 inhib	CSC inhib	eIF4H FP inh	Env fusion inh	PABP FP inh	MT1-MMP act inh	MT1-MMP act inh RFP	others
C=CCNC(=S)N1CCN(c2ccc([N+](=O)[O-])cc2)CC1	-14.3	i	6.2	-0.4	0.0	0.2	5.1	-8.3
Cc1c(/C=N/n2cnnc2)c2ccccc2n1C	-27.1	i	-4.3	-15.5	i	8.5	-1.3	0.8
C(#CCN1CCOCC1)COCCOC(c1ccccc1)c1ccccc1	-7.5	i	-2.0	5.5	22.4	11.9	0.2	4.0
COc1ccccc1Cn1c(/C=C/c2ccccc2)nc2ccccc21	x	u	5.4	-1.3	1.2	1.9	-12.7	-15.8
O=C(N/N=C/c1ccc(OC(=O)c2ccc([N+](=O)[O-])cc2)cc1)c1cccnc1	-7.8	i	-8.0	5.3	9.9	-2.5	2.5	5.7
CC(=O)N1c2ccc(F)c(F)c2C[C@H]1C	-12.7	x	14.1	x	10.1	x	-1.2	4.2
Cc1ccc(N2CC(C(=O)Nc3ccccc3C(=O)N3CCOCC3)CC2=O)cc1 (stereo unspecified)	-7.2	i	-6.1	-6.4	1.4	-1.5	-0.7	4.3
Clc1ccccc1OCc1nnc(-c2ccccc2)o1	x	i	12.4	-6.6	-36.8	-4.0	-5.1	-3.1
O=C(CSc1ncccc1C(=O)O)c1ccccc1	-15.7	i	17.9	-4.8	x	6.3	1.3	2.4
CC(C)OC(=O)c1ccc(NC(=O)c2ccccc2)cc1	x	i	-1.4	1.1	-88.4	-6.9	-1.5	-8.0
FC(F)(F)c1nc2ccccc2[nH]1	-4.7	i	4.2	-2.4	-7.1	-10.4	1.8	-0.8
COC(=O)c1cn(NC(=O)c2ccc([N+](=O)[O-])cc2Cl)c(=O)c2ccccc12	-10.2	i	13.6	-4.7	7.4	3.2	-8.5	-0.4
COc1cccc(/C=C2\SC(=O)N(CCC(=O)NNC(=O)c3cccc(Cl)c3)C2=O)c1	-23.5	i	3.5	-5.2	x	3.1	-0.4	1.4
COc1ccc(C(=O)NCC(=O)N/N=C/c2ccc(C)o2)cc1OC	-2.6	i	4.9	2.0	1.6	-2.2	-5.9	1.8
CCOc1cc(C(=O)N2CCc3cc(OC)c(OC)cc3C2)ccc1OC(F)F	x	x	x	-13.3	-17.2	-1.7	x	x
CC(=O)c1ccc(N2CCN(S(=O)(=O)c3cccc4nonc34)CC2)cc1	-11.3	i	0.1	0.7	4.3	7.2	-22.1	-3.5
Cc1ccc(C)c(N2CCN(C(=O)c3cc(S(=O)(=O)N4CCOCC4)cn3C)CC2)c1	-2.9	i	-5.9	-7.2	15.9	-12.6	-1.5	2.3
CC1(C(=O)NS(=O)(=O)c2ccc(Cl)cc2)CCN1C(=O)Cc1ccsc1 (stereo unspecified)	-13.6	x	x	x	5.3	x	-2.4	2.1
CCC1CCCCN1C(=O)CSc1nc(N)c(NC(=O)c2ccc(OC)c(OC)c2)c(=O)[nH]1 (stereo unspecified)	6.4	i	-10.8	2.5	8.9	12.2	-5.4	0.6
CC(=O)c1cccc(NC(=O)c2cc(-n3cnnc3)ccc2Cl)c1	-25.1	x	-3.3	0.8	x	-5.3	0.2	6.2
COc1cccc(/C=N/Nc2nc3ccccc3n3cnnc23)c1O	x	i	57.3	27.8	4.9	-1.5	-124.7	-1.5
COc1cc(C(=O)O/N=C2\C=CC(=O)C(C)=C2)cc(OC)c1OC	-6.6	i	27.9	-6.6	-119.7	-2.8	-55.4	5.1
CC(C)(C)NC(=O)CC(c1ccccc1)c1ccccc1O (stereo unspecified)	-3.5	i	-1.0	-6.3	-54.5	-9.5	-1.5	0.0
O=C(CCCn1c(=S)[nH]c2cc3c(cc2c1=O)OCO3)N1CCN(c2ccc(F)cc2)CC1	-10.4	i	1.6	-14.2	17.1	-4.6	3.5	-2.2
CCn1nc(C)cc1C(=O)Sc1cccc(Cl)c1	-10.7	i	51.3	7.0	-14.2	-0.3	-0.1	0.2
CC1CCCCC1NS(=O)(=O)CCNC(=O)c1ccccc1 (stereo unspecified)	-6.9	i	-6.8	x	-2.0	x	1.9	-0.2
Cc1cccc(NC(=O)CSc2ccc(-c3ccco3)nn2)c1	-7.3	i	x	51.3	x	-17.0	2.2	-3.6	eIF4H FP inh retest=37.8;PABP FP inh retest=41.7
Cn1cc(Br)c(-c2cccc(NC(=O)CCC(=O)O)c2)n1	x	i	-5.1	-0.3	5.5	6.4	-1.1	-3.4
CC12CCC(C(=O)N(CC(O)CN3CCCCC3)C1=O)C2(C)C (stereo unspecified)	x	i	1.0	2.4	x	-8.7	11.1	1.6
Nc1ccc(C(=O)OCC(=O)NC2CCS(=O)(=O)C2)cc1[N+](=O)[O-] (stereo unspecified)	-12.0	i	-12.0	2.1	12.3	-2.6	2.3	4.1

The closing 3 compounds of the section above come first, to join the parts:
SMILES	UUG fidelity	Rce1 inhib	CSC inhib	eIF4H FP inh	Env fusion inh	PABP FP inh	MT1-MMP act inh	MT1-MMP act inh RFP	others
Cn1cc(Br)c(-c2cccc(NC(=O)CCC(=O)O)c2)n1	x	i	-5.1	-0.3	5.5	6.4	-1.1	-3.4
CC12CCC(C(=O)N(CC(O)CN3CCCCC3)C1=O)C2(C)C (stereo unspecified)	x	i	1.0	2.4	x	-8.7	11.1	1.6
Nc1ccc(C(=O)OCC(=O)NC2CCS(=O)(=O)C2)cc1[N+](=O)[O-] (stereo unspecified)	-12.0	i	-12.0	2.1	12.3	-2.6	2.3	4.1
C[N+](C)(C)C[C@H](O)CC(=O)[O-]	-18.6	i	-10.3	x	x	x	-0.5	3.3
CN(C)CCNc1nc2sc3c(c2c(=O)n1CCc1ccccc1)CCCCC3	-4.6	i	105.7*	0.7	1.5	-3.1	-1.7	-6.6
CCN(CC)c1ccc(/C=N/N2CCN(Cc3ccc(C)cc3C)CC2)c(O)c1	-8.8	i	64.8	-4.6	-48.4	-12.3	-0.9	-11.5
CC(=O)N(C)c1nnc(-c2ccccn2)s1	-15.1	i	-4.0	3.6	x	5.7	1.2	-0.7
COC(=O)[C@@H]1C[C@H]2CC[C@H](O)C[C@H]2N1Cc1ccc(Cl)cc1	-17.0	i	-12.4	1.5	-9.6	-4.7	0.3	2.9
NC(=O)c1sc(-c2ccsc2)cc1NS(=O)(=O)c1ccc(C(F)(F)F)cc1	-21.7	i	79.0*	5.7	24.8	7.3	6.1	-9.6
Cc1ccc(S(=O)(=O)N2CCN(C(=O)C3Cc4ccccc4CN3C(=O)c3ccco3)CC2)cc1 (stereo unspecified)	-10.5	i	0.5	3.3	x	2.8	-2.0	0.0
N#Cc1ccc(S(=O)(=O)NCC(=O)OCC(=O)N2CCCC2=O)cc1	8.2	i	-9.8	x	3.4	x	3.3	2.4
CC(Cc1ccccc1)C(=O)NCCO (stereo unspecified)	1.9	i	7.2	-5.0	9.4	15.3	-3.3	-1.3
COc1ccc2ccc(=O)oc2c1CC(O)C(C)(C)O (stereo unspecified)	-12.7	i	-7.9	10.2	x	3.5	2.6	4.1
CCn1c(SCC(=O)NCC2CCCO2)nnc1-c1ccc(Cl)cc1 (stereo unspecified)	-6.1	i	-14.0	-13.1	7.4	-5.1	4.0	3.9
CN(C)c1ccc(/C=C(\NC(=O)c2ccccc2)C(=O)NCCN2CCOCC2)cc1	-6.0	i	x	-4.1	-1.3	-5.6	-3.8	1.8
O=C1O[C@H](CO)[C@@H](O)[C@H](O)[C@H]1O	-7.5	x	x	x	-3.9	x	-4.2	1.1
COc1cc(/C=C/c2ccc3c(Br)cc(Br)c(O)c3n2)ccc1O	-1.4	i	115.1*	13.6	53.5	16.9	-30.6	-8.1
CCN(CC)c1ncnc2sc(C(=O)N3CCN(c4ccccc4)CC3)c(C)c12	1.1	i	-2.5	-11.8	x	1.2	-2.5	-2.7
Cc1cc(F)ccc1NC(=O)c1cc(S(=O)(=O)N2CCOCC2)cn1C	-11.5	i	0.6	-2.1	2.3	9.6	2.6	5.5
CC(=O)c1ccc(OCC(=O)NCc2ccc(F)cc2)cc1	x	x	-8.7	0.4	8.5	13.2	0.9	4.9
O=C(NCCC1=CCCCC1)c1ccc(F)c(S(=O)(=O)N2CCOCC2)c1	x	i	-8.9	-4.8	x	4.7	4.9	-2.3
Cc1ccc2nc(-c3ccccc3)c(CN3CCN(c4ccccc4F)CC3)n2c1	1.9	i	21.3	0.1	-8.4	12.0	-12.3	-9.3
CCN(CC(=O)Nc1ccc(OC(F)F)cc1)C1CCCCC1	-10.7	i	5.2	-15.3	-8.1	4.8	-1.6	-1.9
Cc1nn(CC(=O)Nc2ccc(N3CCOCC3)cc2)c(C)c1[N+](=O)[O-]	0.6	x	-8.1	x	x	x	0.9	1.5
CC[C@@H](C(=O)[C@@H](C)[C@@H](O)[C@H](C)[C@@H]1O[C@@H]([C@@H](CC)C(=O)O)CC[C@@H]1C)[C@H]1O[C@]2(C=C[C@@H](O)[C@]3(CC[C@@](C)([C@H]4CC[C@](O)(CC)[C@H](C)O4)O3)O2)[C@H](C)C[C@@H]1C	-6.5	x	x	x	-13.0	x	-15.6	-35.5
O=C(NCc1ccc(Cl)cc1)C(=O)NCC1OCCN1C(=O)c1ccc(Cl)cc1 (stereo unspecified)	x	i	-20.9	-3.1	-0.5	1.0	-0.6	-4.1
CCCCNC(=O)C(c1ccc(OCC(=O)OC)c(C(=O)OC)c1)N(CCc1c[nH]c2ccccc12)C(=O)CCCCCN1C(=O)NC(c2ccc(-c3ccccc3)cc2)C(C(=O)OCc2ccccc2)=C1C (stereo unspecified)	x	i	x	0.1	x	-1.8	x	x
Fc1c(F)c(-n2nnc3ccccc32)c(F)c(F)c1Cl	-10.1	i	-11.2	0.6	21.9	-10.7	-0.5	1.4
Cc1cc(C)cc(-c2nnc(SCC(=O)c3c(N)n(C4CC4)c(=O)[nH]c3=O)o2)c1	-9.9	x	x	x	3.3	x	0.3	0.2
COc1ccc([N+](=O)[O-])cc1NC(=O)CSc1nc(C)cc(C)n1	-7.5	i	19.7	11.6	23.2	6.5	3.8	-1.0
CC(=O)/C=C\c1ccccc1OC(=O)c1cc2ccccc2oc1=O	-3.2	i	4.1	15.1	1.0	3.6	3.1	-1.5
O=C(Nc1ccon1)c1ccccc1Cl	-8.2	i	-9.9	-8.6	-24.0	1.8	3.1	3.1
COc1ccc(NC(=O)c2cccc(Cn3cc(Br)cn3)c2)cn1	1.8	i	-0.8	10.3	4.4	-2.4	2.0	1.2
COC(=O)[C@H]1C[C@@H]1[C@H](NC(=O)OCc1ccccc1)c1ccccc1	-10.8	i	-3.6	-10.6	0.9	-7.5	0.7	-1.9
O=C(Nc1cccnc1)c1cc2cc(Br)ccc2oc1=O	x	i	x	17.7	-10.8	62.7	-2.3	-0.5	eIF4H FP inh retest=41.3;PABP FP inh retest=23.0
